Bioassay records: PubChem, Southern Research Institute
Mtb growth – Mycobacterium tuberculosis H37Rv growth inhibition, cell based, confirmatory dose response (AID 1949); inhibition, % at 10 µg/mL; hits with a dose series show IC50 in µg/mL; 1.6% of 100,000 active; most inactive calls were filed without a number and no value below 0 was filed;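 active means confirmed in a dose series; inconclusive means about 50% or more but not retested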;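 further: bacteria grown 7 days with compound before Alamar blue readout; 0% = untreated bacteria and 100% = reference antibiotic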
Starred values were filed as active, the others as inactive; i = inactive; ? = inconclusive.

molecule	Mtb growth
COc1ccc(OC)c(S(=O)(=O)NC2CCCCC2)c1	i
CC(C)(C)NC(=S)NCCc1ccccc1	i
Cc1cc(C)c(S(=O)(=O)Nc2ccccc2C(=O)N2CCOCC2)c(C)c1	i
CC(NS(=O)(=O)c1ccc(OCC(=O)Nc2ccc(Br)cc2)cc1)c1ccccc1 (centres undefined)	i
O=C1CC(c2ccccc2Br)c2cc3c(cc2N1)OCO3 (centres undefined)	i
Cc1occc1C(=O)Nc1nc2ccc(Cl)cc2s1	3%
Cc1cc(C)c(NC(=O)CSCc2ccccc2Br)c(C)c1	i
Cn1c(SCC(=O)N2CCN(c3ccccc3)CC2)nnc1-c1ccco1	26%
CC(=O)NC(c1ccco1)c1cc(Cl)c2cccnc2c1O (centres undefined)	7%
O=C1CC(NC2CC2)C(=O)N1c1ccc(Cl)cc1 (centres undefined)	i
Cn1c(Cc2ccccc2)nnc1SCC(=O)Nc1cc(Cl)c(Cl)cc1Cl	1%
COc1cc2nc(SC(C)C)n(-c3ccccc3)c(=O)c2cc1OC	i
O=C(CNC(=O)c1ccco1)NCC(=O)OCc1c(F)cccc1Cl	4%
CC(C)OC(=O)c1cn(-c2ccccc2)nc1-c1ccccc1	16%
CS(=O)(=O)N(CC(=O)Nc1ccc(I)cc1)C1CCCCC1	1%
Cc1ccc(N=C2NC(=O)CC(C(=O)Nc3cccc(F)c3)S2)cc1 (centres undefined)	i
COc1ccc(OS(=O)(=O)c2ccc(I)cc2)cc1	i
COc1ccc(Cl)cc1NC(=S)NC(C)c1ccncc1 (centres undefined)	0%
O=C(CC1(O)C(=O)Nc2ccc(Cl)cc21)c1ccco1 (centres undefined)	i
O=C(CNC(=O)Cc1ccccc1)NCC(=O)NCC1CCCO1 (centres undefined)	i
Cc1cc(=O)[nH]c(SCC(=O)Nc2ccccc2C#N)n1	i
CCOc1ccccc1N(CC(=O)OC)S(=O)(=O)c1ccc(Cl)cc1	i
O=C(CSCc1ccccc1Cl)NCc1ccccc1Cl	2%
CNC(=O)c1ccc(N(Cc2ccccc2)S(C)(=O)=O)cc1	i
COc1ccc(C)cc1NC(=O)CN1C(=O)c2ccccc2C1=O	i
COc1ccc(NC(=O)c2ccco2)cc1NC(=O)c1cccc(OCc2ccccc2)c1	12%
COc1cccc(CNCCc2c[nH]c3ccccc23)c1O	9%
COc1cccc2cc(-c3cn4c(n3)sc3ccccc34)c(=O)oc12	0%
OC(COc1ccc(Br)cc1)CN(Cc1ccccc1)c1ccccc1 (centres undefined)	35%
COc1ccc(CCN2C(=O)CC(Cc3ccc(C)cc3)C2=O)cc1OC (centres undefined)	i
CCn1c2ccccc2c2nnc(SCC(=O)NCc3ccco3)nc21	i
O=C(OCc1ccc(I)cc1)c1ccc([N+](=O)[O-])cc1	?
CCc1cccc(CC)c1NC(=O)CN(c1cccc(C)c1)S(C)(=O)=O	i
NCCNCCOCCOc1ccc(Cl)cc1Br	i
COc1ccc(Oc2nc(C)cc(C)c2C#N)cc1	1%
O=C(O)C1CCCN1C(=O)C12CC3CC(C1)CC(c1ccccc1)(C3)C2 (centres undefined)	i
COc1ccc(NC(=O)C(=S)NCc2ccco2)cc1	i
CCOC(=O)c1ccccc1NC(=S)NCc1ccc(Cl)cc1	5%
Cn1c(SCC(=O)NCC2CCCO2)nnc1-c1cccc(NC(=O)c2ccccc2)c1 (centres undefined)	i
CCOC(=O)c1ccc(COC(=O)c2ccc3c(c2)-c2ccccc2C3=O)cc1	12%
CC12C(=O)N(Cc3ccco3)C(=O)C1C1C=CC2C1 (centres undefined)	2%
COc1ccc(S(=O)(=O)N(C)CC(=O)Nc2cc(Cl)ccc2Oc2ccccc2)cc1	1%
COc1c(S(=O)(=O)N2CCN(c3cc(Cl)ccc3C)CC2)ccc(Cl)c1Cl	4%
Cc1sc2ncnc(SCC(=O)c3ccc(OC(F)F)cc3)c2c1C	i
O=C(NC1CCN(Cc2ccccc2)CC1)c1cc(Br)cs1	5%
Cc1ccc(C(=O)Nc2ccccc2C#N)c(C)c1	i
O=C1CNC(=O)N1Cc1ccc(F)cc1	i
COc1ccc(CC(=O)c2c(O)cc(O)cc2O)cc1OC	i
O=C1CCCN1CCCNC(=S)Nc1ccc(Nc2ccccc2)cc1	i
Cc1cc(C)c2c(N)c(C(=O)NCCc3ccccc3)sc2n1	i

Further compounds
molecule	Mtb growth
COc1cc(COc2ccc3ccc(=O)oc3c2)cc(OC)c1OC	6%
c1ccc(-n2ncc3c(NCc4ccco4)ncnc32)cc1	2%
CCCn1c2ccccc2c2nnc(SCC(=O)Nc3sc4c(c3C(=O)OCC)CCC4)nc21	5%
CCC(=O)Oc1ccc2c(=O)c(Oc3ccccc3Br)c(C)oc2c1	8%
CCn1c(SCC(=O)Nc2nccs2)nnc1-c1ccc(Cl)cc1	i
Cc1ccc(S(=O)(=O)N(C)c2ccc(C(=O)NCCSc3ccc(Cl)cc3)cc2)cc1	i
Cn1c(SCC(=O)N2CCCCCC2)nnc1-c1ccncc1	i
COc1cc(S(=O)(=O)N2CCN=C2C)ccc1Br	i
COc1ccccc1-n1c(C)nc(=O)c(-c2ccccc2)c1C	i
O=C(c1cccs1)c1cn(CC(=O)N2CCc3ccccc32)c2ccccc12	i
Cc1cc(C)cc(OCC(=O)NCCNC(=O)COc2cc(C)cc(C)c2)c1	1%
CCC(C)c1ccc(NC(=S)Nc2c(C)nn(Cc3c(F)cccc3Cl)c2C)cc1 (centres undefined)	i
O=C(CCSc1ccccc1)NCc1cccnc1	i
CCCCOc1c(I)cc(CNCCC)cc1OC	42%
CCc1ccc(CN2CCC(C(=O)N3CCN(Cc4ccccc4)CC3)CC2)cc1	i
CCNC1CCCc2c1[nH]c1ccc(C)cc21 (centres undefined)	i
Cc1nc2ccccc2c(=O)n1-c1ccccc1I	i
CCOC(=O)C1CCN(C(=O)C(C)N(c2ccccc2)S(C)(=O)=O)CC1 (centres undefined)	i
Cc1cccc(OCCn2c(NC(=O)c3cccc([N+](=O)[O-])c3)nc3ccccc32)c1	i
CCC(=O)Nc1ccc2[nH]c(=O)[nH]c2c1	i
COc1cc(C(=O)NC(=S)Nc2ccc(I)cc2Cl)cc(OC)c1OC	i
Cc1ccc(S(=O)(=O)N2CCCC2)c(C)c1	i
Cc1ccc(NC(=O)NC2CCCCC2)c(Br)c1	i
O=C(Cc1ccccc1)Nc1ccc(NC(=O)c2ccc(NC(=O)Cc3ccccc3)cc2)cc1	i
COc1ccc(CCNC(=O)CN(Cc2ccc(Cl)cc2)S(C)(=O)=O)cc1OC	i
O=C(Nc1ccccc1C(=O)Nc1nccs1)c1cccc(Br)c1	i
COC(=O)c1ccccc1NC(=O)c1csc2ccccc12	9%
COCCNCCOCCOc1c(Cl)cc(C)cc1Br	i
Cc1c(C(=O)Nc2ccc3oc(-c4cc(F)c(F)cc4Cl)nc3c2)cccc1[N+](=O)[O-]	i
O=C(Nc1ccc2ccccc2c1)Nc1ccc2nccnc2c1	i
COc1ccc(C)cc1N(CC(=O)Nc1cccc(Cl)c1Cl)S(C)(=O)=O	2%
CCOC(=O)c1cc(NC(=O)Nc2ccccn2)c(C)nc1C	i
Cc1ccc(C(C)(C)C)c(OCCCN2CC(C)OC(C)C2)c1 (centres undefined)	i
Cc1ccc(CNS(=O)(=O)Cc2ccccc2)cc1	6%
Cc1cc(C)c(S(=O)(=O)NCc2ccccc2C)c(C)c1	4%
CC(=O)Nc1ccc(OCC(O)Cn2cnc3ccccc32)cc1 (centres undefined)	i
CC1(C)Cc2ccccc2C(=NCC(=O)O)N1	4%
CCn1c(SCC(=O)Nc2ccccc2C(C)C)nnc1-c1ccc(Cl)cc1Cl	0%
Cc1ccc(SCCC(=O)N2CCN(c3cccc(Cl)c3)CC2)cc1	i
CC(NC(=O)C(=O)Nc1ccc(Cl)cc1)c1ccccc1 (centres undefined)	i
O=C(Nc1ccccc1C(=O)NCCc1ccccc1)c1ccccc1F	i
CCN(C(=O)c1ccc(S(=O)(=O)N(C)C)cc1)c1cccc2ccccc12	i
CCCS(=O)(=O)c1nc(S(=O)(=O)c2ccc(C)cc2)c(NCc2ccc(Cl)cc2)s1	3%
O=C(NCCc1ccccc1)c1cnn2cccnc12	i
COc1ccc2[nH]cc(CCNC(=O)c3ccccc3)c2c1	i
COC(=O)c1ccc(C2C3=C(CC(C)(C)CC3=O)c3onc(N)c32)cc1 (centres undefined)	i
COc1ccc(NC(=O)CSCC#N)cc1	i
Cc1cc(C(=O)NCc2cc(C)n(C)n2)sc1-c1ccccc1	i
Cc1ccc(C(=O)Nc2ccc(CN3CCCCC3)cc2)c(C)c1	i
O=C(CCC(=O)c1ccc(Br)cc1)Nc1ccc(F)cc1	i

Among those listed so far, 4 contain a cyano group:
molecule	Mtb growth
Cc1cc(=O)[nH]c(SCC(=O)Nc2ccccc2C#N)n1	i
COc1ccc(Oc2nc(C)cc(C)c2C#N)cc1	1%
Cc1ccc(C(=O)Nc2ccccc2C#N)c(C)c1	i
COc1ccc(NC(=O)CSCC#N)cc1	i

Following part.
molecule	Mtb growth
COCCn1c(SCCOc2ccccc2Cl)nnc1-c1ccc(Cl)cc1	i
O=C(OCc1ccccc1)C1CCCN1c1nc(-c2ccc(F)cc2)cs1 (centres undefined)	2%
COC(=O)CSc1nc2sc3c(c2c(=O)n1-c1ccc(Br)cc1)CCCC3	i
COc1cc(C(=O)Oc2ccc(Cl)c3cccnc23)cc(OC)c1OC	11µg/mL*
CCC(C(=O)O/N=C(\N)Cc1cccc2ccccc12)c1ccccc1 (centres undefined)	10µg/mL*
COc1ccc(OC(C)C(=O)Nc2cc(OC)c(Cl)cc2OC)cc1 (centres undefined)	i
CCCOc1ccc(N2C(=O)CC(NCC(=O)OCC)C2=O)cc1 (centres undefined)	i
S=C(NCc1ccccc1)Nc1ccc2nc(-c3ccco3)c(-c3ccco3)nc2c1	i
O=c1c(-c2nc3ccccc3s2)coc2c(CN3CCCCC3)c(O)ccc12	i
CCOC(=O)N1CCC(Nc2nc(N3CCCC3)nc(N3CCCC3)n2)CC1	2%
CCCCOc1ccc(NC(=O)CSc2nnnn2C)cc1	13%
COc1ccc(CO)cc1I	i
FC(F)(F)c1cc(-c2ccccc2)nc(N2CCCC2)n1	1%
O=C(CSc1c(-c2ccccc2)c2cc(Cl)ccc2[nH]c1=O)N1CCN(C(=O)c2ccco2)CC1	1%
COc1cc(OC)c(-c2nc3ccccc3s2)cc1Br	i
O=C(O)CCCCCN1C(=O)C(O)=C(C(=O)/C=C/c2ccccc2)C1c1ccccc1F (centres undefined)	i
CCOc1ccc(-n2nc3ccc(NC(=S)NC(=O)CC)cc3n2)cc1	i
O=C(NC(=S)Nc1ccc(N2CCCCC2)c(Cl)c1)c1cc(Br)ccc1Cl	i
COc1cccc(C(=O)Nc2nc3c(s2)Cc2cc(OC)ccc2-3)c1	i
Cc1ccc(-n2c(-c3ccncc3)n[nH]c2=S)c(Br)c1	i

Quoted from the entries so far for reference:
molecule	Mtb growth
COc1ccc(S(=O)(=O)N(C)CC(=O)Nc2cc(Cl)ccc2Oc2ccccc2)cc1	1%
COc1c(S(=O)(=O)N2CCN(c3cc(Cl)ccc3C)CC2)ccc(Cl)c1Cl	4%
Cc1sc2ncnc(SCC(=O)c3ccc(OC(F)F)cc3)c2c1C	i
O=C(NC1CCN(Cc2ccccc2)CC1)c1cc(Br)cs1	5%
Cc1ccc(C(=O)Nc2ccccc2C#N)c(C)c1	i
O=C1CNC(=O)N1Cc1ccc(F)cc1	i
COc1ccc(CC(=O)c2c(O)cc(O)cc2O)cc1OC	i

Going on with the list:
molecule	Mtb growth
S=C(Nc1ccc2nc(-c3ccccn3)c(-c3ccccn3)nc2c1)N1CCCCC1	3%
Cc1cc(NC(=O)Cc2ccc(F)cc2)no1	i
O=C(Cc1cccs1)Nc1ccc(-c2nc3ccccc3[nH]2)cc1	6%
Cn1c(Cc2cccc3ccccc23)nnc1SCc1c(Cl)cccc1Cl	i
CNC(=S)N1CCN(c2ccccc2OC)CC1	i
C=C1C2(C(=O)Nc3ccc(OC)cc3)CCC(C2)C1(C)C (centres undefined)	i
Cn1c(SCc2cc(=O)[nH]c3ccccc23)nc2ccccc2c1=O	0%
CCOc1ccc(S(=O)(=O)Nc2ccc(S(=O)(=O)Nc3ccccc3C)cc2)cc1	i
O=C(c1cccc2ccccc12)N1CCN(Cc2ccccc2F)CC1	i
Cc1cc(Cl)ccc1OC(C)c1nnc(N)s1 (centres undefined)	i
CCN(CC)C(=O)C(=O)Nc1ccc(Cl)cc1C	i
C=CCN1C(=O)C2(NC(CCCC)C3C(=O)N(Cc4ccccc4)C(=O)C32)c2ccccc21 (centres undefined)	0%
Cc1ccc(OCCCCN2CC(C)CC(C)C2)c(C)c1 (centres undefined)	1%
O=C(CCN1C(=O)C2C3C=CC(C3)C2C1=O)Nc1cccc2ccccc12 (centres undefined)	i
CCOc1ccc(C(=O)Nc2ccc(F)cc2)cc1Cl	0%
CCC(CC)C(=O)Nc1cccc(-c2nc3ccccc3o2)c1	0%
CCOC(=O)c1cnc(SCc2ccc(Br)cc2)nc1N	7%

The list is partial, so the mix of outcomes need not match the whole.
